D2 ag = human D2 receptor agonism in beta-arrestin assay; 360,000 compounds, 0.084% hits; AID 624465; DiscoveRx PathHunter D2 beta-arrestin, luminescence, 90 min; 100% = 57 uM dopamine signal; activation, % (concentration not given with the values); in the data active = activation above about 40%; inconclusive = about 15% to 40%; inactive = below about 15%; note: the text of the record calls up to 30% inactive
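Agonist mode: compounds alone added to overnight-plated D2 PathHunter cells for 90 min at 37 C, with 57 uM final dopamine (EC100) defining full response. Beta-arrestin recruitment detected by chemiluminescent reagent, read after 1 h at ambient temperature.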
Sfp inh = Sfp phosphopantetheinyl transferase inhibition | 310,000 compounds, 3.5% hits | Q9F4F7 | AID 1490 | Potency, µM, without a hit: max response, negative = inhibition, hits mostly inhibitors | Biochemical Sfp PPTase activity, qHTS; active = well fitted inhibition curve with a large enough effect; inconclusive = small, poorly fitted or top-dose-only effect, or another doubt; inactive = no such curve, though single readings can be large or run the other way;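 note: the enzyme is Sfp with the accession as filed and its product quenches rhodamine fluorescence; potency is the fitted concentration of half-maximal effect; 0% = enzyme reaction without inhibitor and -100% = no enzyme wells; top concentration of the series not given in the record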
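Step 1, compound plus 15 nM Sfp-PPTase, 15 min, room temperature. Step 2, add rhodamine-CoA (5 uM) and BHQ-2-YbbR (12.5 uM). Step 3, read 525/598 nm fluorescence at 0 and 30 min.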
TRPV1 PAM = enhances activation of the human vanilloid receptor TRPV1 | Q8NER1 | potentiation, % at 8.33 µM | 320,000 compounds, 0.02% hits | AID 540277 | TRPV1-expressing cells, Fluo-8 calcium influx, capsaicin EC20 potentiation; host cell line not named in the record; control for the full effect not named in the record; active means potentiation above 80%; inconclusive means 30% to 80%; inactive means below 30%; note: 0% is about no effect
Target sequence (Q8NER1 whole entry, looked up): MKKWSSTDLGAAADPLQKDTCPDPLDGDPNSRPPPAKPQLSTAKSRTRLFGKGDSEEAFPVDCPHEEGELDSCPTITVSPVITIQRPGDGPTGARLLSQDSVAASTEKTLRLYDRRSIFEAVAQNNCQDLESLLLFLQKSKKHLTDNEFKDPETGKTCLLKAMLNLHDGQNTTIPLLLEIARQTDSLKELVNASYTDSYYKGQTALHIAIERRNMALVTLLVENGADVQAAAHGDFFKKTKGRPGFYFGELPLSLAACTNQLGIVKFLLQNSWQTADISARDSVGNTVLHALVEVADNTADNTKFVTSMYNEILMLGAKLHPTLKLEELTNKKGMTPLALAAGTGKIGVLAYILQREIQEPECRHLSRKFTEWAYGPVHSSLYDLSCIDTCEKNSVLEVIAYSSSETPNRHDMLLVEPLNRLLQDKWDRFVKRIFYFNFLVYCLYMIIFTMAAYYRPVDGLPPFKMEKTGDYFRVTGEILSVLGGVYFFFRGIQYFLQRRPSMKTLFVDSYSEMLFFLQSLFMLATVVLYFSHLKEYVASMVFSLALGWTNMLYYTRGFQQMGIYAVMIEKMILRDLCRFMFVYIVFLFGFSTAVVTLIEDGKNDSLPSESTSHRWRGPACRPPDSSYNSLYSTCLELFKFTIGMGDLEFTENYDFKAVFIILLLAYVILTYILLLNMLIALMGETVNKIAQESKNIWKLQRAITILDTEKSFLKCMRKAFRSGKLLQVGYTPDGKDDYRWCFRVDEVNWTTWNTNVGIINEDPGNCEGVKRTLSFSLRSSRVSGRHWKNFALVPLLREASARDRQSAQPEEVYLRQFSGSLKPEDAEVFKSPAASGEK
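Cells expressing TRPV1 were dye-loaded with Fluo-8 and read kinetically: 10 s baseline, 3 min after compound (agonist portion), then 2 min after EC20 capsaicin (allosteric enhancer portion). Calcium-bound dye fluorescence at 480/520 nm.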
D2 PAM = positive allosteric modulators of human D2 dopamine receptor | P14416 | DiscoveRx D2 beta-arrestin cells, luminescence, 90 min; 100% = 57 uM dopamine signal | potentiation, % (test concentration not listed) | 360,000 compounds, 0.23% hits; active = potentiation of 50% or more; inconclusive = 30% to 50%; inactive = 30% or less;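 note: compound concentration not given in the record; tested on top of an EC20 dose of dopamine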
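D2 cells co-treated with compound plus 50 nM dopamine (EC20) for 90 min at 37 deg C to detect potentiation. Beta-arrestin recruitment was read as enzyme-fragment luminescence after 1 h at ambient temperature. Full response was set by 57 uM dopamine.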
Six1-Eya2 blk = Six1/Eya2 interaction inhibition. 360,000 compounds, 0.56% hits. activity change, % (test concentration not listed). AlphaScreen GST-Six1/His-Eya2 binding, biochemical; hits give low values; control for the full effect not named in the record. AID 651725; in the data active = activity change below about -65%; inconclusive = about -30% to -65%; inactive = above about -30%; note: % is set by controls: 0 for no effect and ±100 for the full control effect
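AlphaScreen luminescence read after one hour at 37 °C in darkness. Pin-transferred compounds met GST-Six1 and His-Eya2 protein (5X stock 250 nM/500 nM) plus glutathione donor and Ni-chelate acceptor beads (5X, 50 ug/mL).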
CtBP-E1A blk = inhibitors of CtBP/E1A interaction; AlphaScreen GST-E1A/His-CtBP binding, 1536-well; hits give low values; control for the full effect not named in the record; 340,000 compounds, 0.49% hits; activity change, % (concentration not given with the values); in the data active means activity change below about -65%; inconclusive means about -30% to -65%; inactive means above about -30%; note: % is set by controls: 0 for no effect and ±100 for the full control effect
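Protein mix (5X: 125 nM each GST-E1A, His-CtBP) was incubated with pinned compound 2 h at 37 deg C in dark, in 50 mM Tris pH 8.0 buffer with 300 mM NaCl. Glutathione donor and nickel acceptor beads followed; AlphaScreen signal read after 1 h.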
PINK1 modulator = changes PINK1 expression. 410,000 compounds, 0.2% hits. Potency, µM (doses to about 76.6 µM), for the others: at the highest dose activation (PINK1 increase), most hits filed as activators. PINK1 immunofluorescence, high-content cytometry, 24 h; active = well fitted activation curve with a large enough effect; inconclusive = small, poorly fitted or top-dose-only effect; inactive = flat fitted curve, though single readings scatter; cell line not stated here;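 note: potency is the fitted concentration of half-maximal effect; % of control where 0% means no effect; nearly all actives have a fitted effect of over 65% in size; a mitochondrial uncoupler was the plate control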
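PINK1 protein level read as immunofluorescence by microplate cytometer in a fixed, stained stable cell line after 24 h exposure to five compound concentrations, with CCCP as control.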
Starred values were filed as active, the others as inactive; u = inconclusive; x = not tested or not shown; [ ] = dose if it differs, or a comment. The order is random. Share with any hit: about 3.7%.

SMILES	D2 ag	Sfp inh	TRPV1 PAM	D2 PAM	Six1-Eya2 blk	CtBP-E1A blk	PINK1 modulator
COc1cc(N=Nc2ccc(Br)cc2)cc(C=O)c1O	-17.2	x	x	-17.0	-1.0	0.6	2.0%
COc1ccc(Nc2nc(-c3ccccc3)nc3ccccc23)cc1S(=O)(=O)N1CCOCC1	u	8.7%	3.3	2.0	-23.8	-4.4	0.6%
O=C(c1cccnc1)N1CCN(C(=O)c2ccco2)CC1	-2.0	12.9%	0.7	3.1	-2.2	-10.2	x
CCN(C(=O)CN1CCN(c2cccc(Cl)c2)CC1)c1c(N)n(Cc2ccccc2)c(=O)[nH]c1=O	0.1	6.4%	-2.2	-19.1	1.0	8.3	1.5%
Cc1[nH]c(C)c(S(=O)(=O)NCCc2ccccc2)c1C(=O)N1CCCC1	-5.7	12.6%	4.2	-14.2	-0.7	0.1	-0.9%
O=C(CNC(=O)c1ccc(Br)o1)OCc1ccc(Br)cc1	4.6	x	2.9	-2.9	-2.0	-20.4	-0.1%
C=CCN(c1ccc(Cl)cc1)S(=O)(=O)c1cccc(C(=O)O)c1	4.4	17.9%	-4.1	0.9	-0.1	0.0	-0.9%
Cc1cc(C)n(C(=O)c2cc([N+](=O)[O-])cc([N+](=O)[O-])c2)n1	u	-4.8%	4.2	-3.1	0.2	x	1.5%
COc1ccccc1OCCn1c(=O)sc2ccccc21	-4.5	1.1%	-31.7	-18.0	9.1	9.5	-2.5%[38.3 µM]
CCOC(=O)Cc1csc(SCn2nnc3ccccc3c2=O)n1	-3.1	-5.1%	-14.1	-21.1	-1.3	-3.9	1.0%
CCc1ccc([C@@H]2CC=C(C(=O)O)[C@H](c3ccc(Br)cc3)N2S(=O)(=O)c2ccc(C)cc2)cc1	-0.3	x	x	x	-4.8	4.2	-0.5%
CN1CCN(C(=S)NC(CC(=O)c2ccccc2)c2ccccc2)CC1 (centres undefined)	-1.3	14.9%	x	-8.2	-0.4	-6.0	-0.4%
Cc1ccccc1N=C1NC(=O)C(CO)(CO)S1	-3.9	u	-9.2	-4.0	5.5	-0.7	-1.1%
O=C(O)c1sccc1Oc1ccc(NS(=O)(=O)c2ccc(Cl)cc2)cc1	1.0	9.7%	2.3	-7.0	-27.7	x	0.0%
Cc1ccc(OCCNC(=O)/C=C/c2ccccc2)cc1	-7.0	21.4%	-8.0	-5.3	4.2	7.9	-2.4%
O=C(C1CCC(CNc2c(N3CCOCC3)c(=O)c2=O)CC1)N1CCN(c2ccccc2)CC1 (centres undefined)	0.3	6.9%	-1.4	-3.4	-4.9	-1.1	2.3%
CCOc1cc(-c2nc(-c3ccc(OC)cc3)no2)cc(OCC)c1OCC	-2.8	2.2%	-6.9	-10.2	2.8	1.4	10.8%
Cc1cccc([N+](=O)[O-])c1NC(=O)COC(=O)C1CC2CCCC(C1)C2=O (centres undefined)	-5.0	x	-1.8	-64.1	4.2	5.8	-4.2%
CC1(C)C(Cl)C(=O)C(C(=O)c2ccccc2)C(=O)C1Cl (centres undefined)	7.9	17.0%	27.1	5.0	13.8	4.8	3.7%
Cc1ccccc1NC(=O)Nc1nc(C(N)Cc2ccccc2)cs1 (centres undefined)	-0.4	x	x	-13.7	-24.6	u	u
CC1CN(C2CC(C)(C)NC(C)(C)C2)CCC1=O (centres undefined)	-0.4	19.8%	-5.1	0.5	-2.9	4.1	-1.0%
CCCCN1C(=O)C(=O)N(CC(=O)Nc2cc(Cl)ccc2OC)C1=O	0.3	x	-6.7	-3.3	-1.7	-10.1	0.4%
CCOc1ccc(NC(=O)C2CC(=O)N(CCc3ccc(OC)c(OC)c3)C2)cc1OCC (centres undefined)	-1.4	x	5.6	-5.6	u	x	1.9%
COc1cccc(C(=O)NCC(=O)OCC(=O)c2ccccc2)c1	-5.5	5.9%	-2.8	-16.6	8.3	12.7	0.7%
CCN(CC)c1cccc(OCC(=O)N2c3ccccc3CC2C)c1 (centres undefined)	0.6	x	-15.5	-9.4	u	x	6.9%

Entries of single compounds, looked up by structure.
Profile of Cc1cccc([N+](=O)[O-])c1NC(=O)COC(=O)C1CC2CCCC(C1)C2=O (centres undefined) → D2 ag = -5.0; Sfp inh = x; TRPV1 PAM = -1.8; D2 PAM = -64.1; Six1-Eya2 blk = 4.2; CtBP-E1A blk = 5.8; PINK1 modulator = -4.2%
Profile of CCOc1ccc(NC(=O)C2CC(=O)N(CCc3ccc(OC)c(OC)c3)C2)cc1OCC (centres undefined) → D2 ag = -1.4; Sfp inh = x; TRPV1 PAM = 5.6; D2 PAM = -5.6; Six1-Eya2 blk = u; CtBP-E1A blk = x; PINK1 modulator = 1.9%

Continuation.
SMILES	D2 ag	Sfp inh	TRPV1 PAM	D2 PAM	Six1-Eya2 blk	CtBP-E1A blk	PINK1 modulator
COc1ccc(C(=O)Nc2ccc(OCC(=O)N3CCOCC3)cc2)c(OC)c1OC	-3.1	20.9%	-15.9	-6.5	-16.9	-0.4	0.1%
CN(C)c1ccc(Cl)c(NC(N)=S)c1	-5.3	x	x	-4.1	4.0	4.5	-2.6%
COc1cccc(-c2nc(CS(=O)(=O)CC(=O)NC3CCCc4ccccc43)c(C)o2)c1 (centres undefined)	1.1	0.4%	2.5	-5.3	0.0	0.0	-0.7%
C=CCOC(=O)N1CCC2CC1c1cc(-c3cccc(C)c3)ccc12 (centres undefined)	-3.3	x	x	-0.8	21.3	25.7	u
COc1cc(NC(=O)CCCOc2ccc(Cl)cc2Cl)c(C(=O)O)cc1OC	-1.4	0.5%	18.7	-12.0	0.9	x	-0.6%
Cc1ccc(SCC(=O)Nc2ccc(-c3nnc(-c4ccco4)o3)cc2)cc1	1.6	12.1%	x	23.4	0.4	-1.6	6.5%
COC(=O)[C@@]1(C(C)C)N=C(c2cc(OC)c(OC)c(OC)c2)[C@]2(O1)C(=O)Nc1ccccc12	x	x	x	x	0.8	-0.4	0.8%
Cc1nc2ccc(NC(=O)c3ccc(=O)[nH]c3)cc2s1	-2.2	-5.6%	-3.6	-6.6	-10.5	0.2	-2.4%
Cc1ccc(C(=O)OCC(=O)Nc2c(C)nn(-c3ccccc3)c2C)c(O)c1	-1.7	x	x	-2.9	6.6	17.7	0.9%
COc1cccc(CC(=O)NCCCSc2ccccc2)c1	1.7	9.1%	-2.0	7.9	2.1	5.1	0.3%
Cc1csc(NC(=O)CSc2nsc(SCC(=O)Nc3nc(C)cs3)c2C#N)n1	2.5	4.0%	-3.9	-3.4	-23.0	-17.6	7.1%[38.3 µM]
O=c1[nH]c2ccccc2nc1/C=C(\O)c1cccs1	-1.8	1.3%	-17.3	-6.5	3.8	-9.6	u
C/C(CC(=O)Nc1cccc(F)c1)=N\NC(=O)c1ccncc1	3.3	-6.8%	1.3	1.1	5.4	x	-0.2%
CC(C)(C)C(=O)COc1ccccc1[N+](=O)[O-]	-2.0	18.3%	12.9	0.0	4.9	0.5	-1.0%
CC(=O)c1ccc(NC(=O)C(C)Sc2n[nH]c(-c3cccnc3)n2)cc1 (centres undefined)	-1.8	-12.4%	-0.2	-4.6	-0.6	4.4	0.6%
Cc1ccc(C2C(C(=O)c3ccco3)=C(O)C(=O)N2c2nnc(C)s2)cc1 (centres undefined)	-1.5	89.1µM*	-8.9	8.9	-2.5	-0.7	-0.8%
Cc1ccc(CCN2C(Nc3ccccc3)=NC[C@@H]2C)cc1	0.9	x	-62.6	-17.2	0.8	3.8	-0.5%
COc1ccccc1OCCn1c(SCC(=O)O)nc2ccccc21	7.5	-20.6%	2.5	0.3	-3.1	x	1.5%
O=C(Nc1ccccc1C(=O)Nc1ccccc1C(=O)NCc1ccco1)c1ccco1	3.0	-10.6%	7.0	-3.8	-10.7	7.3	18.4%[38.3 µM]
Cc1cc(NC(=O)c2cc(-c3cccnc3)nc3c(C)c(C)ccc23)no1	-4.4	-5.9%	-5.8	17.0	-2.8	-0.5	13.6%
CCCCc1ccc(NC(=O)CC(C)(C)C)cc1	-2.0	-1.9%	-1.9	-3.2	24.4	16.2	u
COc1cc(/C=C2\SC(=O)N(c3ccc(Cl)cc3)C2=O)cc([N+](=O)[O-])c1O	-8.8	-11.0%	-0.9	-4.2	-20.9	-22.9	4.3%
CCOC(=O)/C(=N/Nc1ccccc1)N1CCCc2ccccc21	-2.4	6.3%	7.9	-8.8	-7.6	-25.8	9.5%
CC(C)(C)n1ncc2c(=O)n(Cc3ccc(Cl)c(Cl)c3)cnc21	-2.8	-20.4%	-21.6	3.4	1.0	1.2	0.5%
CCCCC(CCC(=O)O)(C(=O)OCC)c1csc(Nc2ccc(OCC)cc2)n1 (centres undefined)	5.3	u	18.7	-2.3	-1.0	x	2.9%

Some values from the entries so far.
CCCCC(CCC(=O)O)(C(=O)OCC)c1csc(Nc2ccc(OCC)cc2)n1 (centres undefined) – Six1-Eya2 blk = -1.0
COc1ccccc1OCCn1c(SCC(=O)O)nc2ccccc21 – D2 ag = 7.5

(list continues)
SMILES	D2 ag	Sfp inh	TRPV1 PAM	D2 PAM	Six1-Eya2 blk	CtBP-E1A blk	PINK1 modulator
CC1(C)C(C=C(Cl)Cl)C1C(=O)N(Cc1cccc(Cl)c1)C1CCS(=O)(=O)C1 (centres undefined)	-0.7	7.1%	1.2	-6.1	-1.0	2.9	-1.3%
NC(=O)NC(=O)CSc1nc(C2CCCCC2)n(-c2ccccc2)n1	-1.8	7.2%	-16.3	-3.9	1.6	9.1	-1.0%
Cc1cccc(N2CCN(C(=O)Cn3ccc4ccccc4c3=O)CC2)c1C	-3.4	1.0%	-4.8	-1.1	-16.8	5.9	-0.8%
Nc1c([N+](=O)[O-])c(=O)oc2ccccc12	-2.6	1.9%	-2.0	-4.7	-6.2	-7.3	-0.3%
COc1cccc(NC(=O)N2CCCC2C(=O)Nc2ccc3c(c2)OCO3)c1 (centres undefined)	-2.2	15.2%	3.4	-6.7	1.4	5.1	0.1%
Cc1cccc(NC(=S)NC(C)(C)CC(C)(C)C)c1	1.6	15.8%	-9.8	0.0	-5.5	-4.5	3.7%
CCc1nnc(NC(=O)CSc2nc(-c3ccccc3)nc3ccccc23)s1	-1.8	-9.3%	12.9	-20.5	-2.3	-5.2	8.2%
Cc1cc(Br)ccc1NC(=O)CSc1nnc(CN2CCOCC2)n1C	2.6	21.8%	14.8	-2.1	12.5	6.3	4.6%
C/C(=C\C(=O)c1ccc(Br)cc1)NNC(=O)c1ccccc1	-7.8	x	x	4.8	15.1	13.7	1.3%
Cc1ccccc1N(C(=O)CNC(=O)c1ccco1)C(C(=O)NC1CCCCC1)c1cccnc1 (centres undefined)	4.5	22.3%	-5.8	-5.1	5.7	13.0	-1.6%
O=C1N/C(=N\N=C\c2cccs2)SC1Cc1ccc(Cl)c(Cl)c1 (centres undefined)	-6.1	2.6%	1.2	-3.4	5.3	x	6.3%
